Arbovirus anti – arbovirus infection inhibition; arbovirus infection cell-based antiviral screen; inhibition, % at 10 µM; 200,000 tested, 0.37% active;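 active = inhibition from about 30%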;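 also: bluetongue infection of BSR cells; cell survival read as ATP light after 72 h; 0% = infected wells without compound and 100% = uninfected wells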
YopH PTP inh – YopH (Yersinia) phosphatase inhibition; AID 898; inhibition, %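 (about 10 µM by stock and volumes)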; 140,000 tested, 0.16% active; fluorescence Ex485/Em525;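 active = inhibition of 50% or more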;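 also: controls were vehicle for no effect and minimum signal wells for full effect; inactives centre near -20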
RecA splice inh – inhibitors of M. tuberculosis RecA intein splicing; P9WHJ3; cell-free RecA intein splicing, fluorescence; inhibition, %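 (about 9 µM by stock and volumes)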; 290,000 tested, 0.75% active; in the data active = inhibition above about 30%; inconclusive = no clear call, values can overlap the other calls;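 also: 0% = vehicle wells and 100% = reference inhibitor control wells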
Target sequence (P9WHJ3 whole entry, looked up, canonical isoform): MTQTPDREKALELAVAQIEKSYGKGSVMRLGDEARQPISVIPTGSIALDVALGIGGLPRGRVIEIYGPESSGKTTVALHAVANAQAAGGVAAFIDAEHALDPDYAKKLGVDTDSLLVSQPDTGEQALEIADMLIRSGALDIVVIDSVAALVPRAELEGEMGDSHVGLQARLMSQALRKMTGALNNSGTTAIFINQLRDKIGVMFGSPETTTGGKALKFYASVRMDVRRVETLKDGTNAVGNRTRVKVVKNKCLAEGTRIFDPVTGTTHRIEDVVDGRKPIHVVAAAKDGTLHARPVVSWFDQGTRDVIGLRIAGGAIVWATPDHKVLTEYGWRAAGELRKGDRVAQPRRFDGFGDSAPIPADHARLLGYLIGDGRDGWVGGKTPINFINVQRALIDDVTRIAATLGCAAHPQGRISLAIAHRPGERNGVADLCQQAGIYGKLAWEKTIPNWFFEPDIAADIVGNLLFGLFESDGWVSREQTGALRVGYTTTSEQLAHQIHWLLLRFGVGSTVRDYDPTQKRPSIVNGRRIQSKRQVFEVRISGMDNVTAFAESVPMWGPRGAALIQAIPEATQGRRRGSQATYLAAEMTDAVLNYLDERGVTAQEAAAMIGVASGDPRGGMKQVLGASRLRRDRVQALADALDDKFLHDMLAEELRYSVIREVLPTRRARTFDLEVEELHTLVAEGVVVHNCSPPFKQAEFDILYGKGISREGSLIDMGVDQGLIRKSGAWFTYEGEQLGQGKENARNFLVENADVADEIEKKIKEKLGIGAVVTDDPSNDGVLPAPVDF
Mtb H37Rv – M. tuberculosis H37Rv growth inhibitors, H37Rv strain (AID 1626); M. tuberculosis H37Rv growth inhibition; higher % means a stronger effect; inhibition, % at 10 µM; hits with a dose series show IC50 in µM; 220,000 tested, 0.95% active;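 active = confirmed in a dose series; inconclusive = inhibition above 80% but not taken into the dose series; inactive = below 80% or under 30% at every dose of the series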;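 also: bacteria incubated seven days before Alamar blue readout; 0% = bacteria only wells and 100% = bacteria with antibiotic wells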
Mtb bLac sens – beta-lactam sensitization of Mtb H37Rv; M. tuberculosis H37Rv growth with meropenem, percent inhibition; hits of this screen are not shown here; inhibition, % at 25 µM; 330,000 tested, 0.27% active;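 active = about 74% or more and at least 40 points above the plate without the antibiotic, then above 30% in a dose series; inconclusive = first-round hits that could not be retested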;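 also: growth measured after seven days incubation then overnight dye step; 0% = bacteria only wells and 100% = bacteria with antibiotic; twin plates without the antibiotic show which effects depend on it; some results filed as inactive read as strong as hits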
Numbers without * were called inactive; ? = inconclusive; . = no result given.

SMILES	Arbovirus anti	YopH PTP inh	RecA splice inh	Mtb H37Rv	Mtb bLac sens
O=C(Nc1cc([N+](=O)[O-])ccc1N1CCOCC1)c1ccco1	5.9	.	-2.7	8.9%	-7.5
CCOc1ccc(-n2c(-c3ccccc3)nnc2-c2ccccc2)cc1	-10.4	-24.7	0.4	-9.9%	-4.2
CCC(C)N1C(=O)NC(=O)C2(Cc3c(ccc4ccccc34)N(C)C2)C1=O (configuration not stated)	12.6	-10.0	-1.4	0.7%	-0.6
CCN(CC(=O)Nc1ccc(OC)cc1)C(=O)c1ccc2c(c1)NC(=O)C(C)S2 (configuration not stated)	.	.	0.9	.	-11.3
Cc1ccc(C)c(CSCc2nc3ccccc3[nH]2)c1	.	.	12.3	.	2.1
CCN(Cc1ccccc1)S(=O)(=O)c1ccc(C(=O)N(CCCN(C)C)c2nc3c(C)c(C)ccc3s2)cc1	.	.	2.5	.	100.0
C=CCN(C(=O)Cn1nnc2ccccc21)C(C(=O)NCCOC)c1ccc(OC)cc1OC (configuration not stated)	4.8	-15.9	-3.1	-10.5%	-4.5
Cc1cccc(CC(C)NC(=O)c2cc(COc3ccc(F)cc3F)on2)n1 (configuration not stated)	.	.	2.0	.	3.1
COc1ccc(NC(=O)Nc2ccc(F)cc2)cn1	.	.	3.4	.	-5.4
COCCCN1CN(S(=O)(=O)c2ccc(Cl)cc2)c2nc3ccccc3nc21	7.5	-38.7	-0.6	7.0%	-11.9
CS(=O)(=O)c1cccc(C(=O)N(CCc2ccccc2)Cc2cccs2)c1	.	.	2.3	.	10.7
COc1ccc(/C=C/C(=O)NC(=S)N2CCOCC2)cc1	.	.	1.4	.	7.0
O=C1/C(=C/c2ccc3c(c2)OCO3)CCC/C1=C\c1ccc2c(c1)OCO2	4.0	-15.8	30.4*	6.0%	-0.8
Cc1nn(-c2ccccc2)c(C)c1/C=N\N1CCN(c2ccc(Cl)cc2)CC1	21.2	-33.1	0.4	12.4%	41.1
COc1ccc(C(=O)N/C(=C\c2cn(S(=O)(=O)N(C)C)c3ccccc23)C(=O)NC(C)C)cc1	2.9	.	0.0	4.1%	-3.9
CSCCC(NS(=O)(=O)c1ccc2[nH]c(=O)c(=O)[nH]c2c1)C(=O)O (configuration not stated)	-1.8	.	.	-6.1%	-0.9
Cc1ccc2nc(C)cc(Nc3ccc4c(c3)OCCO4)c2c1	-25.3	2.2	3.0	15.2%	8.4
CC1CC(C)CN(CCCNC(=O)c2ccc(CS(=O)(=O)Cc3ccccc3F)o2)C1 (configuration not stated)	-3.4	-44.4	-2.8	-13.6%	-13.0
COC(=O)CCC(=O)OC1(C)C(=O)C=C2C=C(C3CC3)N(CCc3ccccn3)C=C2C1=O (configuration not stated)	.	.	10.5	-6.0%	11.0
O=C1CCCC2=C1C(c1cccs1)Nc1ccccc1N2 (configuration not stated)	-8.8	-19.2	0.5	2.8%	0.6
O=C(Nc1ccc2cn[nH]c2c1)c1ccccc1F	-7.9	-19.7	-0.2	-11.1%	9.7
CCOC(=O)C1CCN(C(=O)COc2ccc(S(=O)(=O)NC(C)C)cc2Cl)CC1	-3.7	-18.7	3.0	-2.2%	1.3
CCOC(=O)C1=C(c2ccccc2)N=C2SCC(=O)N2C1c1ccc(O)c(OC)c1 (configuration not stated)	5.9	3.5	2.1	-9.7%	-0.4
CC(C)N(CCNCc1nnc(-c2ccccc2)o1)C(C)C	3.7	.	-0.8	-2.0%	0.3
CCOc1ccc(NC(=O)CN(C)C(=O)CC2CC3CCC2C3)cc1OCC (configuration not stated)	.	.	2.2	.	-26.1
C[C@H](NC(=O)[C@@H]1CSC2c3ccccc3C(=O)N21)C(=O)NCCc1ccc(F)cc1 (some centres not stated)	.	.	0.9	.	-5.5
c1ccc(-c2cc(-c3nc4ccccc4[nH]3)c3ccccc3n2)cc1	-7.9	-21.5	6.0	71.1%	32.0
CC(C)(C)c1ccc(C(=O)NC(=S)Nc2ccc(N3CCOCC3)cc2)cc1	-3.5	-25.7	-2.0	76.0%	32.6
O=C(Nc1ccc2c(c1)OCCO2)C1CCCN(S(=O)(=O)c2cccc3nsnc23)C1 (configuration not stated)	4.1	-3.6	1.8	1.9%	4.1
O=C(N/N=C/c1cccs1)[C@H]1C[C@@H]1c1ccccc1	-4.0	-33.0	0.9	-8.4%	-2.7
CCCCN1C(=O)c2ccc(C(=O)Nc3ccc(C)c(S(=O)(=O)N(C)C)c3)cc2C1=O	6.3	-0.2	3.7	-2.0%	0.7
Cc1ccc(C2C(C#N)=C(N)Oc3cc(C)oc(=O)c32)o1 (configuration not stated)	-4.9	.	0.0	0.5%	69.8
O=S(=O)(NCCCN1CCOCC1)c1ccc2ccccc2c1	-2.8	.	-6.0	-6.8%	2.3
COc1ccccc1CCN1CCCC(CN(C)C(=O)CCC(N)=O)C1 (configuration not stated)	.	.	-1.0	.	-8.5
CCN(CC)C(=O)Cn1cnc2sc(C)c(S(=O)(=O)N3CCC(C)CC3)c2c1=O	.	.	-1.5	.	1.9
COc1cc(OC)c2c(-c3ccccc3)cc(=O)oc2c1C(CCN1CCCC(C)C1)c1ccc2c(c1)OCO2 (configuration not stated)	.	.	22.0	5.64µM*	100.0
Cc1cccc(C)c1NC(=O)N1CC(C)OC(C)C1 (configuration not stated)	.	.	-2.8	.	2.1
COc1ccccc1NC(=O)Nc1ccncc1	11.3	.	.	1.7%	6.5
O=C(c1cc(-c2ccc(Cl)cc2Cl)on1)N1CCOCC1	-3.6	-26.0	2.3	-16.5%	5.1
C=C(C)C(=O)Nc1nnc(-c2ccccc2C)s1	-2.5	.	.	0.8%	.
CC1(CCCN2C(=O)c3ccccc3C2=O)OCCO1	.	.	-0.4	.	-14.2
Cc1nn(C(CC(=O)O)C(=O)O)c(C)c1Br (configuration not stated)	-3.8	-25.3	-0.5	-3.9%	-4.3
CC1Cc2ccccc2N1S(=O)(=O)c1cnc[nH]1 (configuration not stated)	-0.7	-28.7	1.6	11.9%	15.3
O=C(Nc1cccc(-c2ccc(N3CCOCC3)nn2)c1)c1ccc(F)cc1F	.	.	0.4	.	0.7
Cc1cccc(NS(=O)(=O)c2ccc(C(=O)N3CCCC3)cc2)c1C	.	.	-0.4	.	-7.1
CC(C)CC(NC(=O)C(CC(C)C)NC(=O)OC(C)(C)C)C(=O)O (configuration not stated)	2.0	2.4	1.2	-5.1%	-2.8
Cc1cc(NC(=O)CSc2nnc3ccc(-c4ccc(F)cc4)nn23)no1	.	.	-3.2	.	3.3
Cc1oc(-c2ccccc2)nc1CN1C(=O)CN=C(c2ccccc2)c2ccccc21	-19.2	-11.8	11.4	.	-4.6
N#CCSc1nc2ccccc2c2nc3ccccc3n12	-3.3	-26.6	0.6	?	?
Cc1cc(C(F)(F)F)nc(Nc2nc(C)c3ccccc3n2)n1	-7.0	-10.2	-0.1	-5.4%	6.4
CC(=O)c1ccc(OCC(C)Oc2ccc(C#N)cc2)cc1 (configuration not stated)	.	.	1.2	.	-4.9
Cc1ccc(NC(=O)Nc2nnc(-c3ccncc3)s2)cc1	-6.3	.	0.4	-3.7%	19.1
C/C=C(/C)C(=O)Nc1cccc(C2=NOC3(C2)C[C@H](C(N)=O)N(C(=O)COc2ccc(Cl)cc2)C3)c1 (some centres not stated)	.	.	-2.1	12.0%	24.8
O=C(COC(=O)c1cc(-c2ccccc2)nc2ccccc12)NCC1CCCO1 (configuration not stated)	-1.6	.	0.0	-3.4%	-3.4
ClC(Cl)(c1nnnn1-c1ccccc1)c1nnnn1-c1ccccc1	-31.1	-33.1	.	2.8%	87.3
COCCNC(=S)NC(=O)c1ccc(C(C)(C)C)cc1	3.4	.	2.7	1.8%	-0.3
CC(=O)C1=C(O)C(=O)N(c2ccc(O)cc2)C1c1ccccc1[N+](=O)[O-] (configuration not stated)	.	.	-2.3	.	-3.9
O=C(NCc1ccc2c(c1)OCO2)c1cc(-c2ccncc2)nc2ccccc12	.	.	2.7	2.5%	-10.8
Cc1cc(NC(=O)CCC(=O)N(c2ccc(F)cc2)C(C(=O)NC2CCCC2)c2ccccc2)no1 (configuration not stated)	.	.	-3.5	.	4.1
COC(=O)c1ccccc1NC(=O)NN1CCN(C)CC1	.	.	-1.3	.	-5.3

The list continues:
SMILES	Arbovirus anti	YopH PTP inh	RecA splice inh	Mtb H37Rv	Mtb bLac sens
CCOC(=O)CCCCC(=O)c1[nH]c(=O)[nH]c1CSc1nnc2c3cc(Br)ccc3n(C)c2n1	-2.9	.	-0.1	7.0%	-1.2
CCOC(=O)c1ccccc1NC(=O)c1cc(S(=O)(=O)N2CCOCC2)ccc1F	-5.6	5.5	.	0.3%	-2.7
Cc1ccc(CNC(=O)C2CCCN(c3nc4ccsc4c(=O)s3)C2)cc1 (configuration not stated)	-17.1	.	-6.6	-0.9%	-0.6
COC(=O)c1cc(NC(=O)CCc2c(C)nc3ncnn3c2C)cc(C(=O)OC)c1	1.7	-24.7	-2.3	-2.0%	3.5
C=C(C)[C@H]1CN[C@H](C(=O)O)[C@H]1CC(=O)O	.	.	-0.3	-5.9%	3.6
CN1CCC(N(C)S(=O)(=O)c2ccc(NC(=O)COc3ccc(Br)cc3Cl)cc2)CC1	.	.	1.5	.	11.3
Cc1nc(N)sc1C(=O)N/N=C/c1c[nH]c2ccccc12	19.0	-13.7	-2.6	-0.1%	17.9
CC(C)CCNC(=O)C1CC(=O)N(CCc2ccccc2)C1 (configuration not stated)	.	.	1.2	.	0.8
Cc1cccc(OCC(=O)Nc2ccc3c(c2)nc(CN2CCCCC2)n3C)c1	.	.	1.0	.	-2.5
Cc1cc2cc(CN3C(=O)c4ccccc4C3=O)ccc2[nH]1	-1.9	-24.7	.	1.8%	-1.6
CCN(CC)CCNC(=S)Nc1ccc2nc(N3CCOCC3)cc(C)c2c1	.	.	-2.1	.	-4.0
O=C(Nc1ccccc1Cl)C1CCCN(S(=O)(=O)c2ccc(F)cc2)C1 (configuration not stated)	2.9	-25.2	1.4	-2.2%	-14.0
CC(NC(=O)CCc1nnc(-c2ccc(-c3ccccc3)cc2)o1)c1nccs1 (configuration not stated)	-1.6	.	3.7	-1.6%	30.7
CN1CCN(C2=NCCO2)CC1	.	.	-1.2	-11.9%	6.2
CCOc1ccccc1C(=O)NCC(=O)NCCc1ccc(S(N)(=O)=O)cc1	.	.	2.6	.	-2.8
CCOC(=O)C1CCN(C(=O)COc2ccc(S(=O)(=O)N3CCOCC3)cc2C)CC1	.	.	-1.8	.	10.2
COc1ccc(S(=O)(=O)N2CCOCC2)cc1NC(=O)c1ccccc1C	.	.	0.8	.	-2.7
COc1ccc(C)cc1NC(=O)CCCN1C(=O)C(c2ccccc2)Oc2cccnc21 (configuration not stated)	.	.	-3.9	.	6.3
Cc1cc(C)nc(NN=C(c2ccccc2)c2ccccc2)n1	1.5	-21.0	-0.5	1.2%	21.7
N#C/C(=C\c1c(F)cccc1Cl)S(=O)(=O)c1ccccn1	.	.	-1.6	-6.7%	3.6
CCOC(=O)C1=C(CS(=O)(=O)c2ccc(C)cc2)NC(=O)NC1c1ccc(O)c(OC)c1 (configuration not stated)	.	.	-2.8	0.3%	-9.0
O=S(=O)(c1ccc(Br)s1)N1CCC2(CC1)OCCO2	.	.	19.0	.	0.3
CC(=O)c1c(C)n(-c2ccccc2)c2ccc(OCC(O)CN3CCOCC3)cc12 (configuration not stated)	-8.4	-32.5	0.2	3.2%	5.0
O=C(Nc1nc2ccccc2s1)c1ccc([N+](=O)[O-])o1	.	.	-7.7	.	89.2
COc1cccc(NC(=O)CCN2CCN(c3ccccc3F)CC2)c1	4.9	-0.6	-1.2	-8.8%	8.6
Cc1ccc(C(=O)N(CC(C)C)c2c(N)n(Cc3ccccc3)c(=O)[nH]c2=O)o1	.	.	0.6	.	4.6
COc1ccc(C2c3[nH]c4ccccc4c3C[C@H]3C(=O)N(c4ccccc4C(=O)N4CCC(C(=O)O)CC4)C(=O)N23)cc1 (some centres not stated)	.	.	-7.1	.	-13.9
COc1ccccc1C(C#N)N1N=C(C)CC1c1ccccc1 (configuration not stated)	.	.	4.0	.	3.6
CCOC(=O)c1c(NC(=O)C2CCN(S(=O)(=O)c3ccc(Cl)cc3)CC2)sc2c1CCCC2	-5.6	-14.3	-0.2	-0.2%	0.5
Nc1nnc(C(=O)c2ccccc2N)s1	.	11.8	6.7	-6.4%	-10.8

Pulled by compound from the list above (2):
SMILES	Arbovirus anti	YopH PTP inh	RecA splice inh	Mtb H37Rv	Mtb bLac sens
O=C(Nc1nc2ccccc2s1)c1ccc([N+](=O)[O-])o1	.	.	-7.7	.	89.2
COc1ccccc1C(C#N)N1N=C(C)CC1c1ccccc1 (configuration not stated)	.	.	4.0	.	3.6

One compound at a time (already shown). Screens in order: Arbovirus anti | YopH PTP inh | RecA splice inh | Mtb H37Rv | Mtb bLac sens
Listed for COc1cccc(NC(=O)CCN2CCN(c3ccccc3F)CC2)c1 → 4.9 | -0.6 | -1.2 | -8.8% | 8.6
Listed for CC(=O)c1c(C)n(-c2ccccc2)c2ccc(OCC(O)CN3CCOCC3)cc12 (configuration not stated) → -8.4 | -32.5 | 0.2 | 3.2% | 5.0

High-throughput results from PubChem.

These rows are one share of the data; count on the stated rates, not on these rows.
